Screens: PubChem BioAssay, Broad Institute
FGF22 binding = FGF22 (human) thermal shift binding. recombinant FGF22 thermal shift, SYPRO orange fluorescence; percent of sucrose octasulfate shift, DMSO zero. AID 651658. Q9HCT0. 340,000 tested, 1.5% active. calls only at 9.99 µM;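 active = melting point raised past a set limit in the mean and every replicate; three in four hits are not shown here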
Target sequence (Q9HCT0 whole entry, looked up): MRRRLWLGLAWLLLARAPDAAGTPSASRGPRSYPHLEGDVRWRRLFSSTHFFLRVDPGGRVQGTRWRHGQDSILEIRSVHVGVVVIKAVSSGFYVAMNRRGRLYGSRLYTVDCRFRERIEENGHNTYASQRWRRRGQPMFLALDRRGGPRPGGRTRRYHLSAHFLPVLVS
Ecoli rRNA inh = inhibits bacterial ribosomal RNA function over humanized ribosomes. 350,000 tested, 1.6% active. GFP signal change (wild-type ribosome), % (concentration not given with the values). E. coli WT GFP vs humanized-ribosome RFP mutants, fluorescence, 24 h; active compounds read low; DMSO median 0, no signal -100;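 active = significant combined selectivity score with lowered wild-type GFP, culture density cut under 30%, mutant RFP and density less affected; inactive = any of these conditions unmet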; also: one replicate is shown; some compounds called inactive have numbers as strong as hits
Ecoli rRNA inh OD600 = also measured in Ecoli rRNA inh; calls as there; OD600 change, %; measured here: OD600 growth;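 optical density of the mix in the first replicate; 0 = DMSO median and -100 = no signal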
Ecoli rRNA inh RFP = further read-out of Ecoli rRNA inh, marked with its call; RFP signal change, %; measured here: RFP humanized mutant strains;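 first replicate; 0 = DMSO median and -100 = no signal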
* hit, by the source's call; i = inactive; + = active, no number.

SMILES	FGF22 binding	Ecoli rRNA inh	Ecoli rRNA inh OD600	Ecoli rRNA inh RFP
C[C@H](CO)N1C[C@H](C)[C@H](CN(C)C(=O)Cc2cccnc2)Oc2ncc(C#CC3(O)CCCC3)cc2C1=O	i	3	11	-3.0
C[C@H]1CCCCO[C@@H](CN(C)S(=O)(=O)c2ccc(Cl)cc2)[C@@H](C)CN([C@@H](C)CO)C(=O)c2cc(NS(=O)(=O)c3ccc(Cl)cc3)ccc2O1	i	3	4	1.8
C[C@H](CO)N1C[C@H](C)[C@@H](CN(C)Cc2ccc(C(=O)Nc3ccccc3N)cc2)Oc2c(NS(=O)(=O)c3cccs3)cccc2C1=O	i	-1	4	-3.2
COCC(=O)N1CCCCN2[C@@H](CO)[C@H](c3ccc(-c4ccc(C)cc4)cc3)[C@@H]2C1	i	4	6	-2.1
O=C(NCc1ccc(F)cc1)[C@@H]1N[C@@H]2c3ccc(-c4ccccc4)c(=O)n3C[C@@H]2[C@H]1CO	i	-7	-12	-3.6
O=C(Nc1cccc(Cl)c1)N[C@H]1CC[C@H](CCNC(=O)C2CCC2)O[C@H]1CO	i	-4	4	-1.0
C[C@@H]1CCCCO[C@H](CN(C)C(=O)CCCN(C)C)[C@H](C)CN([C@H](C)CO)C(=O)c2cc(NC(=O)Nc3cccc4ccccc34)ccc2O1	i	2	7	6.2
O=C(Nc1ccc2c(c1)OCO2)N[C@H]1C=C[C@H](CC(=O)N2CCN(c3ccccc3)CC2)O[C@@H]1CO	i	-3	0	-1.1
C[C@@H]1CN([C@@H](C)CO)C(=O)c2cc(NC(=O)Cc3ccccc3)ccc2O[C@@H](C)CCCCO[C@@H]1CN(C)Cc1ccc(C(=O)O)cc1	i	-2	-5	-3.8
C[C@@H]1CN([C@H](C)CO)C(=O)c2cccc(NC(=O)Nc3ccc(C(F)(F)F)cc3)c2O[C@H]1CN(C)Cc1ccccc1	i	5	13	-1.1
CCCc1c(Cc2cccc(F)c2)ncn1CCc1ccccc1OC	i	-58	-83	-20
C[C@@H]1CN([C@@H](C)CO)S(=O)(=O)c2ccc(C#CCN(C)C)cc2O[C@H]1CN(C)Cc1ccc(F)cc1	i	-27	-60	19

Fetched one by one from the list above:
SMILES	FGF22 binding	Ecoli rRNA inh	Ecoli rRNA inh OD600	Ecoli rRNA inh RFP
O=C(Nc1cccc(Cl)c1)N[C@H]1CC[C@H](CCNC(=O)C2CCC2)O[C@H]1CO	i	-4	4	-1.0
C[C@@H]1CN([C@@H](C)CO)C(=O)c2cc(NC(=O)Cc3ccccc3)ccc2O[C@@H](C)CCCCO[C@@H]1CN(C)Cc1ccc(C(=O)O)cc1	i	-2	-5	-3.8
CCCc1c(Cc2cccc(F)c2)ncn1CCc1ccccc1OC	i	-58	-83	-20
C[C@@H]1CN([C@@H](C)CO)S(=O)(=O)c2ccc(C#CCN(C)C)cc2O[C@H]1CN(C)Cc1ccc(F)cc1	i	-27	-60	19
C[C@@H]1CCCCO[C@H](CN(C)C(=O)CCCN(C)C)[C@H](C)CN([C@H](C)CO)C(=O)c2cc(NC(=O)Nc3cccc4ccccc34)ccc2O1	i	2	7	6.2
C[C@H]1CCCCO[C@@H](CN(C)S(=O)(=O)c2ccc(Cl)cc2)[C@@H](C)CN([C@@H](C)CO)C(=O)c2cc(NS(=O)(=O)c3ccc(Cl)cc3)ccc2O1	i	3	4	1.8

(next part)
SMILES	FGF22 binding	Ecoli rRNA inh	Ecoli rRNA inh OD600	Ecoli rRNA inh RFP
CCNC(=O)C[C@@H]1CC[C@H]2[C@H](COc3ccc(NC(=O)Nc4ccc(Cl)cc4)cc3C(=O)N2C)O1	+	-4	-13	11
CC=Cc1ccc2n(c1=O)C[C@H]1[C@H](CO)[C@@H](C(=O)NCC)[C@@H]2N1Cc1cccc(Cl)c1 (mixture of isomers)	i	1	-4	-0.1
C[C@H](O)[C@@H]1C(=O)N2CCc3c([nH]c4cccc(-c5ccccc5)c34)[C@@H]2C[C@@H]1N(C)C(=O)NC1CCCCC1	i	-16	-24	2.3
C[C@H](CO)N1C[C@H](C)[C@H](CN(C)C(=O)Nc2ccccc2)Oc2ccc(NC(=O)CCC(F)(F)F)cc2CC1=O	i	2	1	-3.8
O=C(Nc1ccc(Cl)c(Cl)c1)N[C@@H]1CC[C@H](CCn2cc(C3CCCC3)nn2)O[C@H]1CO	i	-56	-76	-13
O=C(c1ccccn1)N1CC[C@H]2[C@H](CO)Nc3ccc(Br)cc3[C@H]21	i	-2	-3	-4.3
CC(=O)N1[C@H](CO)[C@H](c2ccc(C3=CCCC3)cc2)C12CN(C(=O)C1CC1)C2	i	2	3	-2.0
C[C@H]1CN([C@@H](C)CO)C(=O)c2cccc(NS(=O)(=O)c3ccccc3)c2O[C@H]1CN(C)Cc1ccc(C(F)(F)F)cc1	i	-4	3	1.5
CO[C@@H]1CN(C)C(=O)c2ccc(NC(=O)NC(C)C)cc2OC[C@@H](C)N(Cc2ccc(-c3ccccn3)cc2)C[C@@H]1C	i	-5	-11	0.7
CC=Cc1ccc2n(c1=O)C[C@H]1[C@H](CO)[C@@H](C(=O)NCc3ccc(F)cc3)[C@@H]2N1S(C)(=O)=O (mixture of isomers)	i	-1	0	0.5
CO[C@H]1CN(C)C(=O)c2ccc(NC(=O)Cc3ccccc3)cc2OC[C@@H](C)NC[C@H]1C	i	3	-2	0.0
O=C(C1CCCC1)N1C[C@@H]2[C@H](c3ccccc31)[C@H](CO)N2C(=O)c1cccnc1	i	-2	-10	-0.9
N#Cc1ccc(-c2ccc3c(c2)[C@@H]2[C@@H](CCN2C(=O)C2CC2)[C@H](CO)N3)cc1	i	-3	-4	2.4
CCCNC(=O)Nc1ccc2c(c1)C(=O)N(C)[C@H]1CC[C@H](CC(=O)Nc3ccccc3F)O[C@@H]1CO2	i	-1	-1	-3.2
C[C@@H]1CN([C@@H](C)CO)C(=O)c2cc(NC(=O)C3CC3)ccc2O[C@H]1CN(C)Cc1ccc(Oc2ccccc2)cc1	i	-2	-7	1.8
C[C@@H]1CN([C@H](C)CO)C(=O)c2cc(NC(=O)Nc3ccc(F)cc3)ccc2O[C@@H]1CN(C)S(=O)(=O)c1ccc(F)cc1	i	3	-19	3.8
O=C(N[C@@H]1CC[C@H](CCNS(=O)(=O)c2ccc(Cl)cc2)O[C@H]1CO)c1cccnc1	i	2	9	-2.2
COc1ccccc1C(=O)Nc1ccc2c(c1)C(=O)N(C)C[C@@H](OC)[C@H](C)CN(C(C)=O)[C@@H](C)CO2	i	-1	-1	-0.8
CC(C)C#Cc1ccc2c(c1)O[C@H](CN(C)Cc1ccccc1)[C@H](C)CN([C@@H](C)CO)S2(=O)=O	i	-12	-32	1.2
Cc1ccc(S(=O)(=O)N(C)C[C@H]2OCc3ccccc3-c3c(n(C)c4ccccc34)C(=O)N([C@H](C)CO)C[C@@H]2C)cc1	i	1	7	-2.5
COc1cccc(-c2ccc3c(c2)[C@H]2[C@H](CCN2C(=O)c2ccccn2)[C@H](CO)N3)c1	i	-8	-11	3.2
C[C@H](CO)N1C[C@H](C)[C@@H](CN(C)C(=O)c2ccncc2)Oc2ncc(-c3ccc(C(=O)N(C)C)cc3)cc2C1=O	i	3	7	-2.2
CN(C)C(=O)C[C@H]1CC[C@H](NC(=O)NC2CCCC2)[C@H](CO)O1	i	0	1	-5.2
C[C@H]1CN([C@@H](C)CO)C(=O)c2cc(C3=CCCCC3)cnc2O[C@@H]1CN(C)S(=O)(=O)c1cn(C)cn1	i	0	11	-1.8
C[C@@H]1CN([C@@H](C)CO)C(=O)Cc2cc(NS(=O)(=O)c3cn(C)cn3)ccc2O[C@@H]1CN(C)C(=O)Nc1ccc(C(F)(F)F)cc1	i	4	2	-0.6
C[C@@H]1CN([C@H](C)CO)C(=O)c2cc(C#CCC3CCCC3)cnc2O[C@@H]1CN(C)C(=O)CN(C)C	i	-1	0	-1.5
CC(C)NC(=O)N[C@H]1CC[C@H](CCn2cc(-c3ccccc3)nn2)O[C@H]1CO	i	-2	6	-4.1
Cc1ccc(S(=O)(=O)N(C)C[C@H]2Oc3cc(-c4cccc(F)c4)ccc3S(=O)(=O)N([C@H](C)CO)C[C@H]2C)cc1	i	3	1	-2.4
O=C(Cc1ccccc1)N1CC[C@H]2[C@H](CO)Nc3ccc(-c4ccccc4F)cc3[C@H]21	i	-53	-75	-10
CC(C)NC(=O)N(C)C[C@@H]1Oc2c(NS(=O)(=O)c3cn(C)cn3)cccc2C(=O)N([C@@H](C)CO)C[C@H]1C	i	2	0	1.8
CCCNC(=O)C[C@H]1CC[C@H]2[C@H](COc3ccc(NC(=O)C4CCCC4)cc3C(=O)N2C)O1	i	0	0	-0.8
CC(=O)N1[C@@H]2c3ccc(C4=CCCC4)c(=O)n3C[C@@H]2[C@@H](CO)[C@@H]1C(=O)N1CCCCC1	i	1	5	2.7
Cc1noc(C)c1NC(=O)N(C)C[C@@H]1Oc2ccc(NS(C)(=O)=O)cc2C(=O)N([C@@H](C)CO)C[C@@H]1C	i	-2	8	-1.1
Cc1ccc(S(=O)(=O)N[C@H]2C=C[C@@H](CC(=O)NCCN3CCCCC3)O[C@H]2CO)cc1	i	1	-2	-0.7
C[C@@H]1CN([C@H](C)CO)C(=O)Cc2cc(NC(=O)Nc3ccc(F)cc3)ccc2O[C@H]1CN(C)C	i	2	6	0.8
COc1ccc(S(=O)(=O)N(C)C[C@H]2OCCCC[C@@H](C)Oc3ccc(NS(=O)(=O)c4ccccc4)cc3C(=O)N([C@H](C)CO)C[C@@H]2C)cc1	i	-1	-2	-3.9
O=C(CN1CCOCC1)N[C@H]1CC[C@@H](CCNC(=O)C2CCCCC2)O[C@H]1CO	i	-1	1	-1.0
CC(C)NC(=O)N(C)C[C@H]1Oc2ccc(NC(=O)C3CC3)cc2CC(=O)N([C@H](C)CO)C[C@H]1C	i	7	8	-1.3
COc1ccc(CN2[C@@H]3CN(C(=O)Nc4ccc(F)cc4)c4ccccc4[C@@H]3[C@@H]2CO)cc1	i	-7	-12	2.5
CCC(=O)Nc1ccc2c(c1)OC[C@@H](C)N(C(=O)c1ccccn1)C[C@H](C)[C@@H](OC)CN(C)C2=O	i	1	5	0.0
CCCNC(=O)N(C)C[C@H]1N[C@@H](CO)[C@@H]1c1ccc(C2=CCCCC2)cc1	i	3	-16	4.2
C/C=C/c1ccc2c(c1)O[C@H](CN(C)Cc1cncnc1)[C@H](C)CN([C@H](C)CO)S2(=O)=O	i	-2	-4	-2.3
COc1ccc(C#Cc2cnc3c(c2)C(=O)N([C@H](C)CO)C[C@@H](C)[C@H](CN(C)C)O3)cc1	i	7	5	-0.7
COCC(=O)Nc1ccc2c(c1)OC[C@@H](C)N(C(=O)c1ccccc1)C[C@@H](C)[C@H](OC)CN(C)C2=O	i	-1	2	-1.8
CN(C)C(=O)C[C@@H]1CC[C@H](NC(=O)Nc2cccc(F)c2)[C@@H](CO)O1	i	5	13	2.9
O=C(C[C@H]1C[C@H]2c3cc(NC(=O)Nc4ccc(F)cc4)ccc3O[C@H]2[C@@H](CO)O1)NCC(F)(F)F	i	3	2	-5.1
CCCC#Cc1ccc2c(c1)O[C@H](CN(C)C(=O)c1ccncc1)[C@@H](C)CN([C@H](C)CO)S2(=O)=O	i	-2	-4	-0.7
COc1ccccc1S(=O)(=O)Nc1ccc2c(c1)OC[C@H](C)NC[C@H](C)[C@@H](OC)CN(C)C2=O	i	3	2	-0.5
C[C@@H]1CN([C@@H](C)CO)C(=O)c2ccccc2-c2ccccc2CO[C@@H]1CN(C)C(=O)Nc1ccccc1C(F)(F)F	i	1	3	-3.0
CCC(=O)N1[C@@H](CO)[C@@H](c2ccc(-c3cccc(F)c3)cc2)[C@@H]1CN(C)C(C)=O	i	-1	-6	-0.7
CC(=O)N1[C@@H]2c3ccc(-c4ccccc4)c(=O)n3C[C@H]1[C@H](CO)[C@H]2C(=O)NCCCN1CCOCC1	i	3	1	0.5
Cc1cc(C(=O)Nc2cccc3c2O[C@H](CN(C)Cc2ccc(C(=O)O)cc2)[C@@H](C)CN([C@H](C)CO)C3=O)n(C)n1	i	1	1	-0.7
C[C@@H]1CN([C@H](C)CO)C(=O)c2cc(C#Cc3ccc(F)cc3)cnc2O[C@@H]1CN(C)C(=O)c1ccccc1F	i	-1	1	2.0
C/C=C/c1ccc([C@H]2[C@@H](CO)N(C(=O)c3cnccn3)C23CN(C(C)=O)C3)cc1	i	2	2	-1.4
O=C(Nc1ccccc1)N[C@H]1CC[C@@H](CCNC(=O)c2ccccc2F)O[C@H]1CO	i	4	-2	-3.0
CN(C)C(=O)C[C@H]1CC[C@@H]2[C@H](COc3ccc(NC(=O)C4CCOCC4)cc3C(=O)N2C)O1	i	2	6	1.0

One compound at a time (already shown). Values in the order: FGF22 binding, Ecoli rRNA inh, Ecoli rRNA inh OD600, Ecoli rRNA inh RFP
Entry for `CC(=O)N1[C@H](CO)[C@H](c2ccc(C3=CCCC3)cc2)C12CN(C(=O)C1CC1)C2` → i, 2, 3, -2.0
Entry for `Cc1ccc(S(=O)(=O)N[C@H]2C=C[C@@H](CC(=O)NCCN3CCCCC3)O[C@H]2CO)cc1` → i, 1, -2, -0.7

Some of the compounds tested; the hit share may differ from the screen's.
